TRPML1 ag = activates the human TRPML1 channel | Q9GZU1 | TRPML1-expressing cells, Ca2+ dye fluorescence, FDSS; host cell line not named in the record; reference of the full effect not given here | activation, % (concentration not given with the values) | 410,000 compounds, 0.12% hits | AID 624414; in the data active = activation above about 50%; inconclusive = about 30% to 50%; inactive = below about 30%; further: 0% is about no effect; the text of the record puts the active cut at 80%
Target sequence (Q9GZU1 whole entry, looked up): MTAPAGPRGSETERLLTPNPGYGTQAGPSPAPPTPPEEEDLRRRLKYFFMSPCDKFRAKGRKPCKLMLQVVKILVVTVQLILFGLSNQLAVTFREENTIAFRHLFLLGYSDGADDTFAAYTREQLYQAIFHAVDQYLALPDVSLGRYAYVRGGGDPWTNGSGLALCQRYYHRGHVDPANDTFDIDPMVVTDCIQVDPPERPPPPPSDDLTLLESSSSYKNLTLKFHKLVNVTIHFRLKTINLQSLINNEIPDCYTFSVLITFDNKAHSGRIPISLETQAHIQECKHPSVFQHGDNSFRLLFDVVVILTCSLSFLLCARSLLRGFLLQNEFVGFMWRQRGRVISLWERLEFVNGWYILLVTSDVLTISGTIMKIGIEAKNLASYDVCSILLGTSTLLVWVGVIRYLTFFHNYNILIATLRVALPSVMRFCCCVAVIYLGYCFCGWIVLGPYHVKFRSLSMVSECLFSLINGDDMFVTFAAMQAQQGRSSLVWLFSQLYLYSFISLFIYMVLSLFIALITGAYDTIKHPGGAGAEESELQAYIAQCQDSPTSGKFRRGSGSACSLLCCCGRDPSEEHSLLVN
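Agonist activity was taken from a 110 s kinetic Ca2+ dye read on the FDSS after pinning compounds onto TRPML1-DL cells. The cells were seeded at 1,500/well with Tet inducer, incubated about 16 h, then dye-loaded at room temperature.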
PINK1 expr mod = PINK1 expression modulation; PINK1 immunofluorescence, high-content cytometry, 24 h; Potency, µM (highest dose often 76.6 µM), inactives show top-dose activation (PINK1 increase), hits mostly activators; 410,000 compounds, 0.2% hits; AID 624263; active = well fitted activation curve with a large enough effect; inconclusive = small, poorly fitted or top-dose-only effect; inactive = flat fitted curve, though single readings scatter; cell line not stated here;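 further: potency means the concentration at half of the fitted maximal effect; % of control where 0% means no effect; nearly all actives have a fitted effect of over 65% in size; a mitochondrial uncoupler was the plate control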
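Cells are seeded, rested 12 hours, then given compound at five concentrations or DMSO for 24 hours. After fixation, blocking and antibody staining, PINK1 amount and mitochondrial localization are scored; CCCP serves as control.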
Active calls of the source: *; ? = inconclusive. The list is partial; rates above refer to the full screens.

Structure,TRPML1 ag,PINK1 expr mod
COc1ccc(Br)cc1CNC(=O)c1nn(-c2ccc(C)cc2)c(=O)c2c1c1ccccc1n2C,-0.7,1.4%
O=C(Cn1cc(S(=O)(=O)Cc2ccc(F)cc2)c2ccccc21)NCc1ccccc1Cl,1.1,0.1%
Cc1ccc(Cl)cc1N1CCN(C(=O)c2cc(S(=O)(=O)N3CCCCC3)cn2C)CC1,0.8,-0.6%
O=C(Nc1ccc(C(=O)OCc2cc(=O)n3c4c(sc3n2)CCCC4)cc1)c1ccccc1,0.9,-0.3%
Cc1cccc(-c2nc3c4ccccc4n(CC(=O)Nc4cc(F)ccc4F)c(=O)n3n2)c1,0.6,1.3%
Cc1cc(OCC(O)CN2CCN(c3cccc(Cl)c3)CC2)ccc1Cl (stereo not drawn),-0.7,?
CCCN1C(=O)C(Cc2nc3ccccc3c(=O)n2CC)c2cc(Br)ccc21 (stereo not drawn),3.4,2.3%
Cc1ccc(-c2noc(CN(C3CCCCC3)S(=O)(=O)c3ccc(F)cc3)n2)cc1,0.2,3.0%
Cc1ccc(NCc2cccn2-c2nnc(N3CCC(C(=O)NCc4ccc(F)cc4)CC3)s2)cc1,1.7,-0.1%
Cc1ccc(-c2nc3c4ccccc4n(CC(=O)N4CCN(c5ccc(F)cc5)CC4)c(=O)n3n2)cc1,0.7,3.2%
COc1cccc(CNC(=O)CCCn2c(=O)c3cccn3c3cccnc32)c1OC,-0.1,0.5%
Cc1ccc(NC(=O)c2c(C)oc3ncnc(N4CCCCC4)c23)cc1Cl,-0.7,-0.6%
Cc1cc(C)c2c(=O)cc(C(=O)Nc3nc4ccc(F)cc4s3)oc2c1,4.5,2.1%
COC(=O)c1ccc(NC(=O)Cn2c(=O)oc3ccccc32)cc1,-1.1,1.1%
CCOc1ccc(NC(=O)CN(C)S(=O)(=O)c2ccc3[nH]c4c(c3c2)CCCC4)cc1,3.3,1.3%
COc1ccc(CNC(=O)c2ccc3nc(C(C)C)oc3c2)cc1OC,2.2,1.5%
COc1ccccc1CNS(=O)(=O)c1cc(C(=O)Nc2cccc(C(F)(F)F)c2)ccc1F,2.7,?
CCc1ccc(CNc2ncnc3onc(-c4ccc(Cl)cc4)c23)cc1,2.9,1.7%
Cc1cc(C)n2c(Nc3c(C)cccc3C)c(-c3ccsc3)nc2n1,-0.2,3.3%
Cn1c(=O)c2cc(S(=O)(=O)NC(Cc3ccccc3)C(=O)Nc3ccc(F)cc3)ccc2n(C)c1=O (stereo not drawn),-0.6,1.5%
COCC(C)Nc1ncnc2c1cnn2-c1cccc(Cl)c1 (stereo not drawn),1.0,4.2%
O=C1NC(=O)c2cc(Nc3ccccc3)c(Nc3ccccc3)cc21,5.3,0.1%
Cc1ccc2nc(NC(=O)CSc3nccn3Cc3ccc(F)cc3)sc2c1,1.5,-5.2%
COc1ccc(CCNC(=O)c2cc3n(n2)CCCN(Cc2ccc(C)cc2)C3=O)cc1OC,-1.0,0.5%
O=C(NCc1cccs1)c1nn(-c2ccccc2F)nc1CO,1.2,-0.1%

A different layout for part of the listing above.
> Cn1c(=O)c2cc(S(=O)(=O)NC(Cc3ccccc3)C(=O)Nc3ccc(F)cc3)ccc2n(C)c1=O (stereo not drawn)
  TRPML1 ag: -0.6	PINK1 expr mod: 1.5%

> COCC(C)Nc1ncnc2c1cnn2-c1cccc(Cl)c1 (stereo not drawn)
  TRPML1 ag: 1.0	PINK1 expr mod: 4.2%

> O=C1NC(=O)c2cc(Nc3ccccc3)c(Nc3ccccc3)cc21
  TRPML1 ag: 5.3	PINK1 expr mod: 0.1%

Carrying on:
Structure,TRPML1 ag,PINK1 expr mod
COc1ccc(NC(=O)CC2C(=O)N(c3ccc(C)cc3)C(=O)N2CCc2ccccc2)cc1 (stereo not drawn),0.4,0.3%
CCn1c(CC2C(=O)N(C)c3ccccc32)nc2ccccc2c1=O (stereo not drawn),1.7,1.8%
Cc1ccc(C(=O)NCC(c2ccc3c(c2)OCO3)N2CCN(C)CC2)cc1C (stereo not drawn),0.6,-1.6%
N#Cc1c[nH]n2c(NC3CCCC3)c(-c3ccc(Cl)cc3)nc12,-1.1,2.4%
Cc1ccc(S(=O)(=O)n2nc(-c3ccc(Cl)cc3)nc2NCc2ccc(F)cc2)cc1,2.1,1.2%
Cc1cc(NS(=O)(=O)c2cn(C)c(C)n2)ccc1Br,0.2,-4.6%
Cc1cccc(COc2ccc(-c3cc(C(F)(F)F)n4nc(C)cc4n3)cc2)c1,-0.1,0.1%
CCOc1ccc(OCC)c(NS(=O)(=O)c2cc(Br)cc3c2N(C(C)=O)C(C)C3)c1 (stereo not drawn),-0.1,-0.4%
CCOC(=O)C1CCN(c2nc3c(S(=O)(=O)c4ccccc4)nnn3c3ccsc23)CC1,0.9,0.6%
COC(=O)c1ccc(C(=O)OC)c(NC(=O)c2c(-c3ccccc3)noc2C)c1,1.1,0.8%
Cc1ccc(S(=O)(=O)NCC(c2ccc(N(C)C)cc2)N2CCOCC2)cc1 (stereo not drawn),-0.9,-1.1%
Cc1ccc(-c2onc(C)c2C)cc1S(=O)(=O)N1CCN(c2ccccc2F)CC1,1.0,-0.2%
CN(C)C=NC(=O)c1cc2c(n(-c3ccccc3)c1=O)CC(C)(C)CC2=O,-0.1,2.0%
CCC1CCCCN1CCCNC(=O)c1ccc2c(c1)N(Cc1cccc(Cl)c1)C(=O)c1ccccc1S2(=O)=O (stereo not drawn),1.5,-0.4%
COc1ccc2oc(=O)c(-c3nnc(-c4ccc(C)cc4)o3)cc2c1,-0.3,0.8%
Cc1cccc(N2CCN(C(=O)CCS(=O)(=O)c3ccc4c(c3)CC(=O)N4C)CC2C)c1 (stereo not drawn),-1.1,1.7%
CSc1ccc(CCNC(=O)c2ccc3c(Cl)c4c(nc3c2)CCCC4)cc1,0.6,0.9%
Cc1ccc(C)c(NS(=O)(=O)c2cc3c4c(c2)C(C)C(=O)N4CCC3)c1 (stereo not drawn),1.3,1.9%
COc1cc(NC(=O)Nc2c[nH]c(=O)[nH]c2=O)cc(OC)c1OC,1.2,1.6%
Cc1cc(C)cc(NC(=O)c2sc3nc(-c4ccccc4)cn3c2C)c1,2.8,3.4%
CCCCn1cc(S(=O)(=O)c2ccc(OC)cc2)c(=O)c2cc(F)c(N3CCOCC3)cc21,-0.7,0.3%
CCOc1ccccc1C1C(C(=O)Nc2ccccc2)=C(C)Nc2nc(SCC(=O)c3ccc(C)cc3)nn21 (stereo not drawn),0.4,8.3%
Cc1ccc2onc(CNC(=O)Nc3cc(F)ccc3F)c2c1,1.3,-1.1%
O=C(NC1CCCCC1)c1ccc(CSc2nc3ccncc3n2Cc2cccc(F)c2)cc1,1.8,1.6%
Cc1ccc(Nc2nc3c(S(=O)(=O)c4ccccc4)nnn3c3ccsc23)c(C)c1,0.2,2.1%
O=C(Nc1ccc(NC(=O)c2cccs2)cc1)c1ccc(Cl)cc1,-0.3,-0.3%
COc1ccc(-n2c(SC)nc3sc4c(c3c2=O)CCN(C(C)=O)C4)cc1,0.6,5.1%
CCOc1ccc(-c2cc(NC(=O)c3ccc(C)cc3)c(C(=O)OC)s2)cc1,-0.1,0.3%
CCOc1ccc(N(Cc2ccccc2)C(=O)c2nc(SCC)ncc2Cl)cc1,4.3,6.6%
COc1ccc(C2=NN(CC(=O)NCCCN(C)c3ccccc3)C(=O)CC2)cc1,1.3,-1.1%
O=C(Nc1ccc(F)c(Cl)c1)C1CCCN(S(=O)(=O)c2cccc3nsnc23)C1 (stereo not drawn),-0.8,1.6%
Cc1ccc(Cl)cc1NC(=O)Cn1nc2c(cc1=O)CC(C)CC2 (stereo not drawn),-0.6,-0.2%
CCOc1ccc(NC(=O)N2CCN(c3ccc(Cl)c(Cl)c3)CC2)cc1,1.2,2.6%
CCOc1ccc(-n2nc3ccc(NC(=O)Cc4ccccc4)cc3n2)cc1,-0.2,-2.3%
COc1cc(NC(=O)c2cc3cc4cc(OC)ccc4nc3o2)cc(OC)c1,0.9,-0.3%
CC(C)CNC(=O)C1=CC(c2ccc3c(c2)OCO3)=NS(=O)(=O)N1C,-0.4,-1.4%
Cc1ccsc1CN(C(=O)COc1ccc(Br)cc1)C1CCS(=O)(=O)C1 (stereo not drawn),0.1,-0.6%
Cc1ccc(-n2ncc(C(=O)N3CCN(c4cc(Cl)ccc4C)CC3)c2C2CCN(C(=O)OC(C)(C)C)CC2)cc1,-0.1,0.3%
COCCn1c(C)cc(O)c(C(c2ccc(F)cc2)N2CCC(C)CC2)c1=O (stereo not drawn),0.0,-0.3%
CCc1cccc(NC(=O)CSc2ncc3c(n2)-c2cc(Cl)ccc2N(C)S3(=O)=O)c1,0.0,1.4%
COc1ccc(-c2noc(C3CC(=O)N(c4ccc(C)c(F)c4)C3)n2)c(OC)c1 (stereo not drawn),2.1,2.8%
COc1cc2c(cc1OC)C(COc1cccc(C(F)(F)F)c1)N(C(=O)c1ccc(S(=O)(=O)N3CCCC3)cc1)CC2 (stereo not drawn),0.4,-4.6%
Cc1ccc(Cn2cc(S(=O)(=O)c3cccc(C)c3)c(=O)c3cc(F)c(N4CCOCC4)cc32)cc1,1.8,?
COc1ccccc1N1CCN(S(=O)(=O)CCNC(=O)COc2ccccc2F)CC1,1.6,2.9%
O=C(CSCc1cnn(-c2ccccc2)c1-n1cccc1)NCc1ccc(F)cc1,5.5,-0.6%
CCCN1CCN(CCCNC(=O)c2cc3c(=O)n(CC)c4ccccc4c3s2)CC1,-0.7,2.7%
CC(=O)Nc1ccc(NC(=O)CCc2c(C)nc3c(c(C)nn3-c3ccccc3)c2C)cc1,1.6,8.6%
Cc1cc(C(=O)Nc2c(C)nc3ccccn3c2=O)ccc1[N+](=O)[O-],-0.3,1.5%
CCOC(=O)Cn1c(CN2CCN(c3ccc(OC)cc3)CC2)nc2c1c(=O)[nH]c(=O)n2C,0.1,0.8%
COc1cccc(NC(=O)CN2C(=O)c3cccc4cccc2c34)c1,3.2,8.7%

Following part
Structure,TRPML1 ag,PINK1 expr mod
O=C(NCCn1cc(SCc2ccccc2)c2ccccc21)c1cccs1,3.6,28%
COc1cc(OC)c(/C=C/c2ccc3ccccc3[n+]2C)c(OC)c1,3.4,?
Cc1ccc(Cc2nc3ccccc3nc2SCC(=O)NCc2ccc(F)cc2)cc1,1.0,8.1%
CC1=C(C(=O)Nc2cccnc2)C(c2ccccc2Cl)n2nc(-c3ccccc3)nc2N1 (stereo not drawn),-0.4,3.0%
COc1ccc(-n2c(=O)c3c(c4cc(OC)ccc4n3C)n(CC(=O)N3CCCC3)c2=O)cc1,-0.5,1.4%
COc1ccc(C2=C(C)C(=O)N(Cc3ccc(C(=O)NCc4ccccc4C)cc3)S2(=O)=O)cc1,3.2,-0.2%
CCc1nnc(NC(=O)c2cc(=O)c3cc(C)c(C)cc3o2)s1,-0.4,1.8%
Cc1ccccc1C(=O)NNc1ncnc2c1cnn2-c1cccc(Cl)c1,0.0,27%
COc1ccc(/C=C/C(=O)Nc2ccc3nc(N4CCC(C)CC4)cc(C)c3c2)cc1OC,1.2,8.0%
COc1ccc(-n2cc(C(=O)NCc3ccc(Cl)cc3)c3ccccc3c2=O)cc1,-0.2,3.4%
Cc1ccc(Cn2c(=O)c3cccnc3n(Cc3ccc(C)cc3)c2=O)cc1,0.4,-0.5%
COc1ccc(CNC(=O)c2cc3cccc(OC)c3oc2=O)cc1,5.0,0.2%
O=C(NC1CC(=O)N(c2ccc(F)cc2)C1)C(c1ccccc1)c1ccccc1 (stereo not drawn),1.7,0.3%
Cc1cccc(NC(=O)Cn2c(=O)n(CCc3ccccc3)c(=O)c3ccccc32)c1,-0.3,12%
Cc1nn(-c2ccccc2)c2c1N(CCCC(=O)NCc1ccc(N(C)C)cc1)C(=O)CS2,-0.2,-0.2%
Cc1ccc(C)c(N2CCN(CCCNC(=O)Nc3ccc(Cl)cc3)CC2)c1,-0.8,0.9%
COc1ccc(OC)c(NC(=O)CSc2cn(CC(=O)N3CCCCCC3)c3ccccc23)c1,0.8,0.6%
Cn1c(=O)c2c(nc(SCC(=O)Nc3ccc(OC(F)(F)F)cc3)n2Cc2cccc(C(F)(F)F)c2)n(C)c1=O,-0.9,-0.4%
O=c1n(Cc2ccc(F)cc2Cl)c2ccccc2c2nc(-c3ccccc3)nn12,0.5,0.4%
CN(C(=O)c1nn(C)c2c1COc1ccccc1-2)c1cccc(C(F)(F)F)c1,-0.1,1.8%

An excerpt of these results, with values under each structure.
The line under a structure holds: TRPML1 ag	PINK1 expr mod
> COc1ccc(CNC(=O)c2ccc3nc(C(C)C)oc3c2)cc1OC
    2.2	1.5%
> COc1ccccc1CNS(=O)(=O)c1cc(C(=O)Nc2cccc(C(F)(F)F)c2)ccc1F
    2.7	?
> CCc1ccc(CNc2ncnc3onc(-c4ccc(Cl)cc4)c23)cc1
    2.9	1.7%
> Cc1cc(C)n2c(Nc3c(C)cccc3C)c(-c3ccsc3)nc2n1
    -0.2	3.3%
> Cn1c(=O)c2cc(S(=O)(=O)NC(Cc3ccccc3)C(=O)Nc3ccc(F)cc3)ccc2n(C)c1=O (stereo not drawn)
    -0.6	1.5%

Source: PubChem (National Center for Advancing Translational Sciences (NCATS))
